# Screening data from PubChem BioAssay.
# Calb biofilm kill: mixture kills Candida albicans biofilm cells; hit rate 0.02% among 120,000; C. albicans biofilm persisters + clotrimazole, fluorescence viability; primary screen in compound mixtures of four per well; inhibition, % at 7.6 µM; AID 1242;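 active = inhibition above 30.3% in the primary screen of four-compound pools, then above 30% when the compound was retested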;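 note: compounds exposed to preformed 24 h biofilms for 48 h; the number belongs to the whole pool; some results filed as inactive read as strong as hits; inactives centre near 12; 0% = biofilm with clotrimazole alone and 100% = kill control; retested singly at about 60 µM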
#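 Assay system: C. albicans biofilms / Medium: RPMI/MOPS medium, pH 7.0 / Schedule: biofilm formation 24 h, compound exposure 48 h, 37 °C / Measured by: Alamar Blue fluorescence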
# The depositor's hits bear a star. Some of the compounds tested; count on the stated rates, not on these rows.
SMILES,Calb biofilm kill
O=C(Nc1ccccn1)c1nc(-c2ccccc2)n(-c2ccccc2)n1,-12
N/C(=N\OCc1ccccc1)c1nonc1N,12
O=C(O)C/C(=C\c1ccc(Cl)cc1)c1nc2ccccc2o1,8
O=C1OC(c2ccc(F)cc2)=C/C1=C\c1ccc([N+](=O)[O-])o1,20
COC(=O)CNC(=O)c1cc(-c2ccncc2)nc2c(C)c(Cl)ccc12,10
Cc1c(Br)c([N+](=O)[O-])nn1CCCC(=O)NC(C)c1ccccc1 (stereo not given),5
COc1ccc(/C=C/C(=O)N2CCCc3ccccc32)cc1,13
Nc1nc(SCC(=O)N2CCOCC2)n[nH]1,20
O=C(Cc1ccccc1)c1c[nH]c(C(=O)NC2CCCC2)c1,-9
COc1cccc2cc(-c3csc(NC(=O)CCC(=O)NCCCN4CCC(C)CC4)n3)c(=O)oc12,22
Cc1ccc(-n2[nH]c(C)c(C=Nc3ccc(S(=O)(=O)N4CCOCC4)cc3)c2=O)c(C)c1,18
COC(=O)c1ccccc1NC(=O)CSc1nc2ncccc2[nH]1,11
CC(c1ccon1)N(C)C(=O)c1ccc(OC2CCN(C(=O)C3CC3)CC2)cc1 (stereo not given),23
O=C(O)COc1ccccc1/C=N/NC(=O)c1cc(-c2ccccc2)nc2ccccc12,21
CCCC(=O)N(c1ccc(C(=O)O)cc1)c1nc(-c2ccccc2)c(C)s1,14
Cc1ccc2cc(CN(C)S(C)(=O)=O)c(=O)[nH]c2c1,12
CCC(=O)N1CCN(c2ccccc2NC(=O)c2ccc(-c3cccc([N+](=O)[O-])c3)o2)CC1,12
COCCN(Cc1cn(C)nc1-c1ccccc1F)C(C)C,5
CN1CCN(NC(=S)NC(C)(C)CC(C)(C)C)CC1,19
N#C/C(=C\c1cc([N+](=O)[O-])ccc1Cl)C(N)=O,-1
CN1CCc2nc3ccccc3c(C(=O)OCC(=O)N(CCC#N)c3ccccc3)c2C1,1
CC(NCCN(C)C)C(=O)C12CC3CC(CC(C3)C1)C2 (stereo not given),9
O=C(Nc1ccc(F)cc1)C1CC(=O)n2cnnc2N1 (stereo not given),17
CCSc1ccc(C(=O)NCC(=O)O)cc1,8
CCCC(=O)N1CCC(O)(c2cccc(F)c2)CC1,16
COc1ccc(NC(=O)c2cccc(S(=O)(=O)N3CCc4ccccc43)c2)cn1,0
O=[N+]([O-])c1cc(Cl)cc(/C=N/NC(=S)Nc2cc(S(=O)(=O)N3CCOCC3)ccc2Cl)c1O,14
O/N=C/c1ccnc(SCc2ccccc2)n1,8
COc1ccc(/C=c2\s/c(=C\C(=O)C(C)(C)C)[nH]c2=O)cc1O,57
CN(C(=O)Nc1ccccc1)C1CCS(=O)(=O)C1 (stereo not given),9
CSc1cccc(NC(=S)N(CCCN2CCCC2)Cc2cccn2Cc2ccc(Cl)cc2)c1,19
COc1ccc(N=Cc2nc(-c3ccccc3)oc2OC(C)=O)cc1,9
COc1ccc(N(C(=O)/C=C/c2ccccc2)C2=CC3CCC(C2)N3C)cc1 (stereo not given),21
COCCn1c(CN2CCN(c3ccc(F)cc3)CC2)nc2c1c(=O)n(C)c(=O)n2C,17
C#CCOCCOCCOCCNc1nc(N2CCN(C(=O)[C@H](CCCCN)n3cc([C@@H](N)CO)nn3)CC2)nc(N2CCN(C(=O)[C@H](Cc3cc4ccccc4[nH]3)n3cc([C@@H](N)CO)nn3)CC2)n1,17
Cc1nc2cc3c(cc2s1)OCO3,13
C(=C\c1ccccc1)/C=N/Nc1ccc2nncn2n1,3
O=c1c2c(-c3ccccc3)csc2ncn1/N=C/c1ccc(O)c([N+](=O)[O-])c1,10
COc1cccc(/C=N/NC(=O)CCc2c(C)n[nH]c2C)c1O,17
COc1cccc(-n2c(SCC(=O)Nc3nccs3)nnc2-c2ccoc2C)c1,4
OCC1(Cc2ccccc2)CCN(Cc2ccccn2)CC1,7
Cc1ccc(NC(=O)c2ccc(NCCN)c([N+](=O)[O-])c2)cc1,15
CCn1cc(C(c2ccccc2)C(C(C)=O)[N+](=O)[O-])c2ccccc21 (stereo not given),11
COc1ccc(OC)c(NC(=O)CCCN2C(=S)NC(C)(C)CC2C)c1 (stereo not given),11
C#CC[N+](C)(C)CC#Cc1ccccc1,18
O=C(O)CSc1nc(-c2ccccc2)c(-c2ccccc2)[nH]1,14
Cc1cc(C)n2nc(C(=O)OCC(=O)N(CC(C)C)CC(C)C)nc2n1,13
COc1ccc(Cn2nnnc2CN2CCC(O)(c3ccc(F)cc3)CC2)cc1,12
CC(=O)c1ccc2c(c1)OCCOCCOc1ccccc1OCCOCCO2,6
Cc1ccc(-c2nnn(CC(=O)N(CCO)C(C(=O)NC3CCCCC3)c3ccncc3)n2)o1 (stereo not given),15
CCCCN1CCc2[nH]c(=S)[nH]c(=O)c2C1,14
CS(=O)(=O)N1CCN(c2cnn(-c3ccccc3)c(=O)c2Cl)CC1,9
O=C1C2C3C=CC(C3)C2C(=O)N1c1ccc(S(=O)(=O)Nc2nccs2)cc1 (stereo not given),15
CC12CCC(c3n[nH]c(=S)nc31)C2(C)C (stereo not given),21
Cc1sc(NC(=O)c2ccccc2)c(C#N)c1-c1ccccc1,14
Cc1c(Cl)c(C(F)(F)F)nn1CC(=O)NN,17
CCOc1cc(/C=N/NC(=O)c2cccs2)ccc1OC(=O)N1CCOCC1,13
Cc1ccc(N(C)C(=O)C2CCCN2S(=O)(=O)c2ccc3c(c2)n(C)c(=O)c(=O)n3C)cc1 (stereo not given),24
Cc1ccc(-n2c(SCC(N)=O)nnc2-c2cnccn2)cc1,26
COCc1nnc(NC(=O)c2ccc3c(c2)OCO3)s1,13
# Next part.
SMILES,Calb biofilm kill
CCN1C(=O)C(CC(=O)NC)N(NC(=O)c2ccccc2)C1=S (stereo not given),16
O=C(/C=C/c1cccc([N+](=O)[O-])c1)Nc1ccc(Cl)cn1,5
O=C(C1CCCO1)N1CCN(C(=S)Nc2ccc(F)c(Cl)c2)CC1 (stereo not given),5
CCN1/C(=C/c2ccc3cc(C)cc(C)c3[n+]2CC)Sc2cc(C)ccc21,12
COc1ccc(Cn2c(-c3ccccc3)nc3c(c(=O)c4ccccc4n3C)c2=O)cc1,17
CCOc1ccc(/C(C)=N/NC(=O)Cn2nc([N+](=O)[O-])cc2C)cc1,16
CC(=O)Nc1ccc(S(=O)(=O)NNC(=O)c2cccc(Br)c2)cc1,11
CNC(=O)CCc1ccc(OC)cc1,11
O=C(COC(=O)C1CC1)Nc1ccc(N=Nc2ccccc2)cc1,18
O=C(Cn1c2[n+](c3ccc(C(F)(F)F)cc31)CCCCC2)c1ccc2c(c1)OCCO2,19
CC(C)Cc1ccc(-c2cc(=O)[nH][nH]2)cc1,14
COc1ccc(/C=C/C(=O)NC(=S)Nc2cc3oc4ccccc4c3cc2OC)cc1,12
Nc1ccc(-c2cnc[nH]2)cc1[N+](=O)[O-],13
COc1ccc(N(CC(=O)NC2CCCCC2)C(=O)CNC(=O)c2ccco2)cc1,14
O=C(CSCc1c(F)cccc1Cl)Nc1cccnc1,19
COc1ccc(Cl)cc1NC(=O)CNc1ccccc1CN(C)C1CCCCC1,15
CN1CCN(C(=O)/C(=C\c2cccs2)NC(=O)c2cccs2)CC1,7
O=C(Cn1nnc2ccccc2c1=O)NCCc1ccc(Cl)cc1Cl,12
C=CCN(C(=O)c1cccc(N2C(=O)C3CC=CC(C)C3C2=O)c1)c1ccccc1 (stereo not given),21
CN=c1scc(-c2ccccc2F)n1/N=C/c1ccc[nH]1,8
CCc1ccccc1NC(=S)N(Cc1cccc(C)c1)c1cccnc1,9
COCCN1C(=O)c2oc3ccccc3c(=O)c2C1c1ccc(OC)c(OC)c1 (stereo not given),-2
O=S(=O)(Cc1noc(-c2ccc(Cl)cc2)n1)Cc1ccco1,1
O=C(COC(=O)/C=C/c1ccc(Br)o1)NCCCN1CCCC1=O,17
O=C(CN(CCO)c1ccccc1)Nc1cccc(S(=O)(=O)N2CCCC2)c1,15
S=c1[nH]nc(-c2ccncc2)n1/N=C/c1cn(-c2ccccc2)nc1-c1ccc(Cl)cc1,12
CC(C)NC(=S)NC(=O)c1ccc(Cl)cc1Cl,14
C/C(=N\NC(=O)c1cccc(S(=O)(=O)N2CCCC2)c1)c1ccco1,8
COC(=O)c1sc(S(=O)(=O)NCCC(=O)O)c(C(=O)OC)c1C,12
O=C1COc2ccc(-c3n[nH]c(=O)c4ccccc34)cc2N1,12
O=C(CO/N=C/c1c(Cl)cccc1Cl)NNC(=O)c1ccc(Cl)cc1,8
CCn1cc(C(=O)OCC(=O)Nc2ccc(C(C)C)cc2)c(=O)c2ccc(C)nc21,12
CN1C(=O)CSc2ccc(NC(=O)N3CCN(c4ccccc4)CC3)cc21,7
Cc1cccc(/C=C(\C(=O)C(=O)O)c2ccc3ccccc3n2)c1,6
COc1ccc(CCNC(=O)CNC(=O)Cn2ccc3ccccc3c2=O)cc1OC,18
c1ccc(N2CCOCCOCCOCCOCC2)cc1,20
CCCOc1ccc(-c2nnn(CC(=O)Nc3cccc(C(=O)OC)c3)n2)cc1,13
Cc1ccc(NC(=O)CCC(=O)N/N=C/c2cccs2)cc1C,4
O=C(c1ccc2c(c1)OCO2)N1CCC2(CC1)Oc1ccc(Cl)cc1C(=O)C21CC(c2ccccc2)=NO1 (stereo not given),19
CCc1c(O)c(/C(C)=N\O)c(=O)n(-c2ccccc2)c1-c1ccccc1,9

# Sorted by heavy-atom count (smallest number first): part of the list above.
SMILES,Calb biofilm kill
Cc1nc2cc3c(cc2s1)OCO3,13
CC(C)Cc1ccc(-c2cc(=O)[nH][nH]2)cc1,14
N/C(=N\OCc1ccccc1)c1nonc1N,12
CCCC(=O)N1CCC(O)(c2cccc(F)c2)CC1,16
O=C(CSCc1c(F)cccc1Cl)Nc1cccnc1,19
O=C(/C=C/c1cccc([N+](=O)[O-])c1)Nc1ccc(Cl)cn1,5
O=C(O)C/C(=C\c1ccc(Cl)cc1)c1nc2ccccc2o1,8
COC(=O)c1sc(S(=O)(=O)NCCC(=O)O)c(C(=O)OC)c1C,12
CN1CCN(C(=O)/C(=C\c2cccs2)NC(=O)c2cccs2)CC1,7
O=C(CO/N=C/c1c(Cl)cccc1Cl)NNC(=O)c1ccc(Cl)cc1,8
O=C(Nc1ccccn1)c1nc(-c2ccccc2)n(-c2ccccc2)n1,-12
CCOc1cc(/C=N/NC(=O)c2cccs2)ccc1OC(=O)N1CCOCC1,13
CC(=O)c1ccc2c(c1)OCCOCCOc1ccccc1OCCOCCO2,6
COc1ccc(N(CC(=O)NC2CCCCC2)C(=O)CNC(=O)c2ccco2)cc1,14
Cc1ccc(N(C)C(=O)C2CCCN2S(=O)(=O)c2ccc3c(c2)n(C)c(=O)c(=O)n3C)cc1 (stereo not given),24
Cc1ccc(-c2nnn(CC(=O)N(CCO)C(C(=O)NC3CCCCC3)c3ccncc3)n2)o1 (stereo not given),15

# Additional compounds follow:
SMILES,Calb biofilm kill
Oc1ccc(-n2cccc2/C=N/n2cnnc2)cc1,21
O=C(Nc1ccc2c(c1)OCCO2)C1CCN(C(=O)c2ccc([N+](=O)[O-])cc2)CC1,11
O=C(NC(=O)c1ccccc1Cl)Nc1ccc(-c2cnco2)cc1,20
CC(C)C(=O)NC(=O)COC(=O)/C=C/c1cccs1,15
O=C(CSc1ccc(Cl)cc1)Nc1cccc(-c2nnc(-c3ccco3)o2)c1,12
CNC(=O)c1ccsc1NC(=O)CN1C(=O)CCC1=O,5
COc1cc(OC)c(OC)cc1/C=N/Nc1ncnc2c1[nH]c1ccccc12,16
CC(OC(=O)c1ccc(NS(=O)(=O)c2ccc3[nH]c(=O)[nH]c3c2)cc1)C(=O)Nc1ccc(Cl)cc1 (stereo not given),-35
Cc1ccc(C(=O)N/C(=C/c2cccs2)C(=O)NCc2ccco2)cc1,5
COc1ccc(NC(=O)CCN2CCCCCC2)cc1,12
Cc1nc(N2CCOCC2)sc1C(=O)NN,17
COc1ccc(C(=O)C2CCCN(Cc3ccc4nonc4c3)C2)c(OC)c1 (stereo not given),12
CCOc1ccc(C(=O)OC2CCN(C)CC2)cc1,9
O=C(OC(C(=O)NCc1cccs1)c1ccccc1F)c1ccco1 (stereo not given),18
O=C(c1ccc2nc[nH]c2c1)N1CCc2ccccc2C1,6
CCCCN=Cc1c(C)[nH]n(-c2ccccc2)c1=S,10
COc1ccc(OCC(=O)NNC(=O)C(=O)N2CCCC2)cc1,20
CC(=O)N1CCN(S(=O)(=O)c2c(F)cc(F)c(Cl)c2F)CC1,3
CC(C)C1OC2c3cccc4cccc(c34)C2N1c1ccccc1 (stereo not given),6
c1csc(C2Nc3ccccc3-c3nc4ccccc4n32)c1 (stereo not given),7
CN(C)c1ccc(/C=C(/C#N)C(=O)NCc2ccccc2)o1,24
N#Cc1ncn(-c2ccc(Oc3ccccc3)cc2)c1N,7
CN(C)S(=O)(=O)c1ccccc1N=C=S,31
COc1ccc(N(CC(=O)Nc2cccc(N(C)S(C)(=O)=O)c2)S(=O)(=O)c2ccccc2)cc1Cl,12
Cc1nc2ccccc2n1CCOc1ccc([N+](=O)[O-])cc1,19
Cc1cccc(N2CCN(C(=S)Nc3ccc4nc(N5CCN(C)CC5)cc(C)c4c3)CC2C)c1 (stereo not given),9
O=C(CCN1C(=O)c2ccc([N+](=O)[O-])cc2C1=O)Nc1cccc(O)c1,9
CCSc1nc(-c2ccccc2)nc(C(Cl)Cl)n1,18
Cc1nnc(N/N=C/c2ccc([N+](=O)[O-])cc2)n1N,10
O=C(N/N=C/C=C/c1ccco1)c1cccc([N+](=O)[O-])c1,8
COc1cc(/C=N/NC(=O)C(=O)NCc2ccco2)cc(Cl)c1O,16
Cc1cc(Cl)n2nc(C)c(-c3ccc(Cl)cc3)c2n1,13
COc1ccccc1N(CC(=O)NCCC1=CCCCC1)S(=O)(=O)c1ccccc1,18
Cc1cc(=O)[nH]c(SCC(=O)N2CCN(S(=O)(=O)c3ccccc3)C2)n1,17
O=[N+]([O-])c1ccc(Sc2cccc[n+]2[O-])c2nonc12,18
COc1ccccc1Nc1nc(N)nc(CSC(=S)N2CCC(C)CC2)n1,0
